From PubChem
TRPV1 potentiator: human TRPV1 potentiation; Q8NER1; TRPV1-expressing cells, Fluo-8 calcium influx, capsaicin EC20 potentiation; host cell line not named in the record; control for the full effect not named in the record; potentiation, % at 8.33 µM; 0.02% of 320,000 active; active means potentiation above 80%; inconclusive means 30% to 80%; inactive means below 30%; also: 0% is about no effect
Target sequence (Q8NER1 whole entry, looked up): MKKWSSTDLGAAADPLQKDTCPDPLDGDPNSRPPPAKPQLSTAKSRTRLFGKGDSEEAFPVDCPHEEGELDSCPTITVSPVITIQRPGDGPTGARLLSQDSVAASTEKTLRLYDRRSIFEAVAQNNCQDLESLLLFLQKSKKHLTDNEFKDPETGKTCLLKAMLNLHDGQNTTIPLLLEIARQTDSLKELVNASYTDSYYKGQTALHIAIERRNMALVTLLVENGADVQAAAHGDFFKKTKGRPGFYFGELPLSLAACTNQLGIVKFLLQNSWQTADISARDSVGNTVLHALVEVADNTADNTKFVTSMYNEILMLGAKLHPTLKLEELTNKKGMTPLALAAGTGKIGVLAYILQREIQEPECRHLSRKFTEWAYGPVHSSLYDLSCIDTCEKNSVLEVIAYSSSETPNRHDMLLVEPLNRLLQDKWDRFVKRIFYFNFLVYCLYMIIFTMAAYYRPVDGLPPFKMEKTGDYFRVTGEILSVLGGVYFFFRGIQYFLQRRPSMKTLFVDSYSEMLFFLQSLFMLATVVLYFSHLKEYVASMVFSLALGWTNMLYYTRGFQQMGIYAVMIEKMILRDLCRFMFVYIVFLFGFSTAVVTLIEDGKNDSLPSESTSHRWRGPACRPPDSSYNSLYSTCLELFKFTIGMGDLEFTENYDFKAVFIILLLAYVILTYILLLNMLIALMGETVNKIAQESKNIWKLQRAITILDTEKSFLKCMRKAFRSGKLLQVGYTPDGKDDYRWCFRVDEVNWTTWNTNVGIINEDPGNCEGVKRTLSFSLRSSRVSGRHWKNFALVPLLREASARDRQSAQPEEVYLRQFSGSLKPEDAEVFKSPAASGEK
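TRPV1-expressing cells were cultured overnight at 35.5C and loaded with Fluo-8 calcium dye for 40 to 90 min at room temperature. After a 10 s baseline, compound was added and calcium influx was read kinetically for 3 min (ex 480/em 520 nm).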
TRPML1 inh: human mucolipin-1 channel inhibition | AID 624415 | 0.02% of 390,000 active | TRPML1-inducible cells, Ca2+ dye fluorescence, FDSS; stronger effect = lower value; inhibition of EC80 agonist-evoked calcium signal | Q9GZU1 | activity change, negative = inhibition, % (no concentration beside the values); in the data active means activity change below about -50%; inconclusive means about -30% to -50%; inactive means above about -30%;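 also: stimulus is agonist 54-4 at its EC80 concentration; % is scaled to controls: 0 for no effect and ±100 for the full control effect; compound concentration not given in the record; the text of the record puts the active cut at -80%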
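Calcium fluorescence in TRPML1-DL cells induced overnight with Tet: a 110 s read after compound pin addition, then a 110 s antagonist read after challenge with 54-4 at 4 uM final (EC80).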
ClpP mod: qHTS Assay for Activators of ClpP | ATP-dependent Clp protease proteolytic subunit (Bacillus subtilis (strain 168)), P80244 | 1.9% of 340,000 active | AID 651965, 2013 | Potency, µM (doses to about 57.5 µM), for inactives: top-dose activity change, negative = active | purified B. subtilis ClpP, FRET peptide cleavage, 20 min; active = well fitted falling curve with a large enough effect; inconclusive = small, poorly fitted or top-dose-only effect; inactive = no such curve, though single readings can be large or run the other way; also: potency is read from the fitted curve at half-maximal effect; the source files actives as falling curves though it sought activators and does not explain the sign; nearly all actives have a fitted effect of over 65% in size; many hits overshoot -100%
Target sequence (P80244 whole entry, looked up): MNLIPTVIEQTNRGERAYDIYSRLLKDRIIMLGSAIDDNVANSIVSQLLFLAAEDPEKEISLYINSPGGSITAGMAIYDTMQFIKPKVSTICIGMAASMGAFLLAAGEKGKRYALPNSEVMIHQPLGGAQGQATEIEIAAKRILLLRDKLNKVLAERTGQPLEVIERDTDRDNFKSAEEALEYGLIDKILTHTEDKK
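FRET quenching reversal measured ClpP activation: 10 microg/mL B. subtilis ClpP at pH 8 with the FRET-FV decapeptide, read at 430 nm after 320 nm excitation. The 20-min minus 0-min signal was scaled between DMSO/no-enzyme wells and ADEP (5.8 microM final).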
PINK1 modulator: PINK1 expression modulation; PINK1 immunofluorescence, high-content cytometry, 24 h; Potency, µM (top dose mostly 76.6 µM), inactives show at the highest dose activation (PINK1 increase), most hits filed as activators; 0.2% of 410,000 active; active = well fitted activation curve with a large enough effect; inconclusive = small, poorly fitted or top-dose-only effect; inactive = flat fitted curve, though single readings scatter; cell line not stated here;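 also: potency is read from the fitted curve at half-maximal effect; % of control where 0% means no effect; nearly all actives have a fitted effect of over 65% in size; a mitochondrial uncoupler was the plate control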
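PINK1 protein level read as immunofluorescence by microplate cytometer in a fixed, stained stable cell line after 24 h exposure to five compound concentrations, with CCCP as control.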
Menin MLL FP FL: inhibitors of human menin-MLL interaction, wild-type MLL peptide. 290,000 tested, under 10 active. Fluorescence polarization, fluorescein-MLL peptide displacement from menin. FP activity change, % at 61.4 µM; inconclusive = falling polarisation curve, or a change in total fluorescence; inactive = total fluorescence flat and polarisation flat or rising; no compound was filed as active; the % refers to the polarisation; negative = inhibition;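 also: % of control where 0% means no effect; inhibitors lower the polarisation; unlabelled MLL peptide was the positive control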
Sfp PPTase inh: inhibitors of Bacillus subtilis Sfp phosphopantetheinyl transferase; 3.5% of 310,000 active; Q9F4F7; Biochemical Sfp PPTase activity, qHTS; AID 1490; Potency, µM, for inactives: max response, negative = inhibition, actives largely listed as inhibitors; active = well fitted inhibition curve with a large enough effect; inconclusive = small, poorly fitted or top-dose-only effect, or another doubt; inactive = no such curve, though single readings can be large or run the other way;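 also: the enzyme is Sfp with the accession as filed and its product quenches rhodamine fluorescence; potency is read from the fitted curve at half-maximal effect; 0% = enzyme reaction without inhibitor and -100% = no enzyme wells; top concentration of the series not given in the record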
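Fluorescence-quenching assay with 15 nM Sfp, 5 uM rhodamine-CoA and 12.5 uM BHQ-2-labelled ybbR peptide in pH 7.6 Hepes/MgCl2 buffer. Enzyme was pre-incubated with compound for 15 min at room temperature. Rate was taken from the 30-min fluorescence change (525/598 nm).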
TRPML1 agonist: agonists of human TRPML1 channel; TRPML1-expressing cells, Ca2+ dye fluorescence, FDSS; host cell line not named in the record; reference of the full effect not given here; activation, % (test concentration not listed); 0.12% of 410,000 active; AID 624414; in the data active = activation above about 50%; inconclusive = about 30% to 50%; inactive = below about 30%; also: 0% is about no effect; the text of the record puts the active cut at 80%
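Agonist activity was taken from a 110 s kinetic Ca2+ dye read on the FDSS after pinning compounds onto TRPML1-DL cells. The cells were seeded at 1,500/well with Tet inducer, incubated about 16 h, then dye-loaded at room temperature.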
Active calls of the source: *; ? = inconclusive; · = no result given; & = joins results of further samples; [ ] = dose if it differs, or a comment.

SMILES	TRPV1 potentiator	TRPML1 inh	ClpP mod	PINK1 modulator	Menin MLL FP FL	Sfp PPTase inh	TRPML1 agonist
O=C(CN1CCCC1)OCCCC1CCCCC1	?	-4	·	-0.8%	3.1	7%	0.2
Cc1ccc2c(c1)COc1c3ccc(C(=O)N4CCCCC4)cc3nn1-2	23	25	-5.6%	3.1%	2.8	-4%	0.0
CC(C(=O)Nc1ccc2c(c1)OCCO2)N1Cc2ccccc2C1=O (configuration not stated)	7	13	0.0%	0.5%	·	9%	-0.6
COc1ccccc1CNc1ncnc2c1c(-c1ccccc1)cn2-c1ccc(Br)cc1	·	-3	-21%	0.7%	·	·	0.2
COc1ccc(C(=O)NCCc2nnc3ccc(SCC(=O)N4CCCC4)nn23)cc1	7	4	-4.2%	1.1%	·	4%	-0.8
COc1cc(NC(=O)c2noc3c2CCC3)c(OC)cc1Cl	-4	-10	-4.0%	11µM*	5.9	?	1.8
COc1ccc(F)cc1S(=O)(=O)N1CCCC(C)C1 (configuration not stated)	4	-2	-1.8%	1.3%[38.3 µM]	3.3	16%	0.7
COc1ccc(CNC(=O)CC(C)n2nc(C)cc2C)cc1 (configuration not stated)	·	14	-0.3%	-1.0%	·	·	0.6
O=C(NCCCn1ccnc1)c1ccc(NS(=O)(=O)c2cccc([N+](=O)[O-])c2)cc1	3	31	-1.1%	-0.8%	·	·	1.0
O=c1[nH]c(CSc2nnc(COc3ccccc3)n2-c2ccccc2)nc2ccccc12	3	15	-4.3%	-7.4%[38.3 µM]	-2.3	?	0.5
COc1ccc(S(=O)(=O)Nc2ccccc2C(=O)NCc2cccnc2)cc1OC	3	-4	·	-0.9%	2.9	10%	-0.3
O=C(NCCc1c[nH]c2ccccc12)C(=O)NCC1OCCCN1S(=O)(=O)c1ccc(F)cc1 (configuration not stated)	6	26	0.4%	-1.0%	4.7	6%	2.0
COC(=O)c1ccccc1S(=O)(=O)Nc1ccc(OC)nc1	-2	1	-0.1%	0.0%	5.9	8%	-0.5
Cc1ccc(NC(=O)C(=O)NCCCN2CCCC2=O)cc1	1	4	-5.6%	-2.3%	·	·	1.0
NNC(=O)C1c2ccccc2Oc2ccccc21	0	12	1.0%	-1.1%	-7.0	6%	1.2
Cc1cc(C)nc(Nc2cc([N+](=O)[O-])ccc2C)n1	?	-17	1.1%	2.3%	5.7	1%	-0.6
Cc1ccc(-c2nnc(Nc3ccc(Br)cc3)c3ccccc23)cc1S(=O)(=O)NCC1CCCO1 (configuration not stated)	·	3	?	2.1%	·	·	-0.8
Cc1ccc(NC(=S)N2CCC(NC(=O)c3ccc(F)cc3)CC2)cc1C	-7	-2	-1.7%	4.7%	-5.7	17%	0.6
CCC(C)(C)NC(=O)C(c1ccc(OC)cc1)N(C(=O)CCC(=O)Nc1cc(C)on1)c1ccc(OC)cc1OC (configuration not stated)	-1	8	·	0.1%	-4.4	11%	-0.2
Cc1ccc(S(=O)(=O)N2CCC(C(=O)N3CCN(Cc4ccccc4)CC3)CC2)cc1	1	6	-0.1%	0.4%	0.4	-1%	0.3
CC(=O)Nc1ccc2nc(NC(=O)CS(=O)(=O)c3ccc(F)cc3)sc2c1	·	1	2.5%	0.5%	·	·	-1.0
O=C(Cn1cnc2ccccc2c1=O)NCCC(=O)Nc1ccc(F)cc1	4	3&-6	0.6%	-2.1%&0.8%	0.6	11%	-0.3&-0.8
Cc1cc(C)cc(NC2=NC3(CCCCC3)N=C(N)N2)c1	-7	18	-0.8%	11%	-1.6	-29%	1.3
NC(=O)c1cccc(NC(=O)Nc2ccc(Cl)cc2)c1	-8	-11	2.5%	1.3%	6.5	13%	-0.2
CC1(c2ccc(Cl)cc2Cl)NC(=O)N(CC(=O)NCCC2=CCCCC2)C1=O (configuration not stated)	·	6	0.5%	-0.8%	·	·	-0.7
CCN(CC(=O)Nc1cccc(C(C)=O)c1)S(=O)(=O)c1ccc(C)cc1	0	-5	·	1.2%	-5.6	7%	0.5
COc1ccccc1N1CCN(/N=C\C(Br)=C\c2ccccc2)CC1	3	11	·	0.9%	5.4	32µM*	0.9
COc1ccc(NC(=O)CC#N)cc1OC	7	4	2.7%	-1.1%	-2.1	9%	-0.4
CC1CCN(C(=S)c2cn(Cc3ccccc3F)c3ccccc23)CC1	10	-4	0.3%	-2.7%	0.2	-5%	2.6
CCc1ccc(CN2CCC(CO)(CC3CCCCO3)CC2)o1 (configuration not stated)	-13	-8	·	0.5%	-0.8	20%	-0.3

Given with bars between the fields: six of the compounds above
compound | TRPV1 potentiator | TRPML1 inh | ClpP mod | PINK1 modulator | Menin MLL FP FL | Sfp PPTase inh | TRPML1 agonist
Cc1cc(C)cc(NC2=NC3(CCCCC3)N=C(N)N2)c1 | -7 | 18 | -0.8% | 11% | -1.6 | -29% | 1.3
NC(=O)c1cccc(NC(=O)Nc2ccc(Cl)cc2)c1 | -8 | -11 | 2.5% | 1.3% | 6.5 | 13% | -0.2
CC1(c2ccc(Cl)cc2Cl)NC(=O)N(CC(=O)NCCC2=CCCCC2)C1=O (configuration not stated) | · | 6 | 0.5% | -0.8% | · | · | -0.7
CCN(CC(=O)Nc1cccc(C(C)=O)c1)S(=O)(=O)c1ccc(C)cc1 | 0 | -5 | · | 1.2% | -5.6 | 7% | 0.5
COc1ccccc1N1CCN(/N=C\C(Br)=C\c2ccccc2)CC1 | 3 | 11 | · | 0.9% | 5.4 | 32µM* | 0.9
COc1ccc(NC(=O)CC#N)cc1OC | 7 | 4 | 2.7% | -1.1% | -2.1 | 9% | -0.4

Carrying on:
SMILES	TRPV1 potentiator	TRPML1 inh	ClpP mod	PINK1 modulator	Menin MLL FP FL	Sfp PPTase inh	TRPML1 agonist
COc1ccc(CN(Cc2ccccn2)S(=O)(=O)c2ccc(-n3cnnn3)cc2)cc1	-8	-8	-0.2%	-0.4%	2.8	8%	1.0
COc1ccccc1CN1C[C@@H]2C[C@@H](c3ccc4nsnc4c3)N3CCC[C@@]23C1=O	3	-4	·	0.9%	11	-21%	-1.2
Cc1ccc([N+](=O)[O-])cc1NC(=S)NC(=O)c1c(Cl)cnn1C	-3	24	-0.7%	3.7%	0.1	45µM*	-0.5
O=C(CCn1c2c(c3ccccc31)CCCC2)NNC(=O)c1ccc([N+](=O)[O-])cc1	-5	17	1.5%	3.8%	-1.8	-10%	0.5
COc1ccc(Nc2nc(N)nc(CSc3nc4cc(OC)ccc4s3)n2)cc1	·	-26	-8.7%	-1.0%	·	·	3.0
CC1(C)C(=O)OC(C(=O)c2ccccc2)C2(CCCCC2)C1=O (configuration not stated)	-18	-5	-0.5%	0.6%	-2.2	-15%	0.7
O=C(Nc1cc(F)ccc1F)C1CCCN1S(=O)(=O)c1cccc2nsnc12 (configuration not stated)	-13	-9	-2.8%	0.2%	·	9%	-0.6
CC(=O)c1ccc(Oc2cc(C)nc(N3CCOCC3)n2)cc1	-8	1	0.7%	0.4%	2.5	22%	-0.7
O=C(Nc1cccnc1)c1c(F)c(F)c(F)c(F)c1F	-1	11	0.5%	0.2%[38.3 µM]	-4.3	-5%	-0.4
O=C1/C(=C/c2ccc(Cl)cc2)SC(=S)N1CCC(=O)N1CCCCC1CCO (configuration not stated)	-6	3	-2.8%	5.3%	·	-8%	-0.2
COc1cc(C2C(C#N)=C(N)Oc3cc(N(C)C)ccc32)cc2c1OCO2 (configuration not stated)	3	-13	-3.6%	12%[38.3 µM]	?	-27%	0.7
CN1CCN(C(=O)C2=C[C@@H](c3csc4ccccc34)C[C@@H](OCCCCO)O2)CC1	-3	2	-3.2%	2.8%	-3.4	-7%	-0.7
COc1cc(/C=C(\NC(=O)c2cc(OC)c(OC)c(OC)c2)C(=O)NC(C(=O)O)c2ccccc2)cc(OC)c1OC (configuration not stated)	19	6	-2.6%	-0.9%	·	11%	0.0
CN(C)/C=C/C(=O)c1ccc(Cl)cc1	4	59	-2.1%	-0.6%[38.3 µM]	28	-1%	-0.1
Cc1ccc(S(=O)(=O)c2cc3ccccc3oc2=Nc2ccc3c(c2)OCO3)cc1	21	6	-3.4%	?	4.0	-1%	-0.4
CCOc1ccc(/C=N/N2C(C)CCCC2C)cc1OC (configuration not stated)	-8	-5	-2.5%	8.7%	8.8	10%	-0.5
Cn1c(=O)n(C)c2cc(N3CCOCC3)c(NS(=O)(=O)c3ccc(Br)cc3)cc21	·	12	-2.7%	2.4%	·	·	-0.7
C=CCSc1nc(C)c(CCC(C)C)c(=O)[nH]1	-1	33	-0.7%	1.6%	0.1	8%	1.7
O=C1c2ccccc2-c2onc3ccc(Oc4ccccc4)c1c23	?	-3	0.7%	-2.6%	1.9	1%	5.5
O=C(NC12CC3CC(CC(C3)C1)C2)c1ccc(S(=O)(=O)N2CCOCC2)cc1	-22	29	0.5%	0.3%	-4.3	-7%	-0.7
COc1ccc(CCn2c(=S)[nH]c(=O)c3[nH]cnc32)cc1OC	·	·	-1.1%	-0.3%	·	·	-0.4
CCOC(=O)COn1c(=O)c(=O)n(O)c2ccccc21	-3	2	-0.6%	9.2%	3.1	-7%	-0.7
COc1ccc(CCN(/C=C2\Sc3ccccc3C2=O)C(C)=O)cc1OC	-7	4	·	0.1%	4.7	-2%	0.0
O=C(COc1ccc2ccccc2c1)Nc1ccc2c3c(cccc13)CC2	1	17	-10%	3.0%	3.6	?	4.6
CC(C)CCn1c(=O)[nH]c2ccccc21	-11	7	·	2.9%	-2.8	5%	0.1
COc1cc(C)ccc1OCc1cc(C(=O)N2CCN(C3CCCCC3)CC2)no1	-15	3	-5.4%	1.4%	·	-3%	0.1
CCOc1ccccc1OCC(=O)NCCc1ccc(S(N)(=O)=O)cc1	0	5	·	-0.4%	-3.8	19%	-0.5
CN(C)c1ccc(/C=C/C(=O)c2cccc(Br)c2)cc1	2	-2	-1.5%	18%[38.3 µM]	?	?	-0.5
CCOC(=O)C1=C(C)NC(C)=C(C(=O)OCC)C1c1ccccn1	-6	-8&1	?	1.1%&-0.9%	4.5	8%	-1.2&-1.2
N/C(=N\OC(=O)COc1ccc(Cl)cc1Br)c1ccncc1	3	20	·	1.3%	1.5	9%	0.2
